High-throughput results from PubChem BioAssay.
Mtb bLac sens: beta-lactam sensitization of Mtb H37Rv | M. tuberculosis H37Rv growth with meropenem, percent inhibition; hits of this screen are not shown here | inhibition, % at 25 µM | 0.27% of 330,000 active | AID 434955;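 active = about 74% or more and at least 40 points above the plate without the antibiotic, then above 30% in a dose series; inconclusive = first-round hits that could not be retested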;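 also: growth measured after seven days incubation then overnight dye step; 0% = bacteria only wells and 100% = bacteria with antibiotic; twin plates without the antibiotic show which effects depend on it; some results filed as inactive read as strong as hits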
Mtb H37Rv: M. tuberculosis H37Rv growth inhibitors, H37Rv strain (AID 1626). M. tuberculosis H37Rv growth inhibition; higher % means a stronger effect. inhibition, % at 10 µM; hits with a dose series show IC50 in µM. 0.95% of 220,000 active;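 active = confirmed in a dose series; inconclusive = inhibition above 80% but not taken into the dose series; inactive = below 80% or under 30% at every dose of the series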;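 also: bacteria incubated seven days before Alamar blue readout; 0% = bacteria only wells and 100% = bacteria with antibiotic wells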
RecA intein inh: inhibitors of M. tuberculosis RecA intein splicing; P9WHJ3; cell-free RecA intein splicing, fluorescence; inhibition, %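 (about 9 µM by stock and volumes)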; 0.75% of 290,000 active; AID 2221; in the data active = inhibition above about 30%; inconclusive = no clear call, values can overlap the other calls;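 also: 0% = vehicle wells and 100% = reference inhibitor control wells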
Target sequence (P9WHJ3 whole entry, looked up): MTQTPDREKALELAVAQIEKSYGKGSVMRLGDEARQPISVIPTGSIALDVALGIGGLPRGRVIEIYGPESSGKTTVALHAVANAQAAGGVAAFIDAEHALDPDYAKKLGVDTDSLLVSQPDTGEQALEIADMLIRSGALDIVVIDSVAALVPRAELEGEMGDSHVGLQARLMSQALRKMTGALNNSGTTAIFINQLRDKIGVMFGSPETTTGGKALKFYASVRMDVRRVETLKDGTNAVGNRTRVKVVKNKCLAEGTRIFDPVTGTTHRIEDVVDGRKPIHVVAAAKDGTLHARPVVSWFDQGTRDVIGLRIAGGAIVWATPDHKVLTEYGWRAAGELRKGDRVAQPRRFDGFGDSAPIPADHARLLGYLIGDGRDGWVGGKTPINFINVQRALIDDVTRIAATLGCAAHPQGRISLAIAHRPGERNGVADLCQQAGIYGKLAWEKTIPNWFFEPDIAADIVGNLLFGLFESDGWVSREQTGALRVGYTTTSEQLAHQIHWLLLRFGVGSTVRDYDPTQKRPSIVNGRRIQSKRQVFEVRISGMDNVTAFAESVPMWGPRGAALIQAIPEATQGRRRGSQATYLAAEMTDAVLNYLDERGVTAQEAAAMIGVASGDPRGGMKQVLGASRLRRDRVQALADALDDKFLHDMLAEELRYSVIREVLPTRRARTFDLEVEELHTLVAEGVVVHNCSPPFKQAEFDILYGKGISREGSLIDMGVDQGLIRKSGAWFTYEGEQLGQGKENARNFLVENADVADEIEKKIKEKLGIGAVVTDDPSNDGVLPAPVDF
Arbovirus anti: blocks arbovirus infection. arbovirus infection cell-based antiviral screen. inhibition, % at 10 µM. 0.37% of 200,000 active;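 active = inhibition from about 30%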;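 also: bluetongue infection of BSR cells; cell survival read as ATP light after 72 h; 0% = infected wells without compound and 100% = uninfected wells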
YopH inh: YopH (Yersinia) phosphatase inhibition. fluorescence Ex485/Em525. inhibition, %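 (about 10 µM by stock and volumes)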. 0.16% of 140,000 active. AID 898;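 active = inhibition of 50% or more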;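 also: controls were vehicle for no effect and minimum signal wells for full effect; inactives centre near -20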
Arbovirus anti repeat: further read-out of Arbovirus anti, marked with its call; inhibition, %; measured here: 10K subset replicate screen; many hits read low in the repeat;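 first of two repeat runs on a subset; 0% = infected and 100% = uninfected wells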
Numbers without * were called inactive; ? = inconclusive; . = no result given. The list is partial; rates above refer to the full screens.

SMILES	Mtb bLac sens	Mtb H37Rv	RecA intein inh	Arbovirus anti	YopH inh	others
CCCn1c(SCC(=O)Nc2ccc(NC(C)=O)cc2)nc2c1c(=O)n(C)c(=O)n2C	3.0	.	0.3	.	.
N#Cc1ccc(NC(=O)CN2C(=O)NC(Cc3ccccc3)C2=O)cc1 (configuration not stated)	-8.6	-0.7%	0.2	7.9	-15.1
Cc1ccc(C(CNS(=O)(=O)c2ccc(Br)cc2)N2CCN(C)CC2)cc1 (configuration not stated)	-7.9	.	-1.5	.	.
O=C(N=C1SC2CS(=O)(=O)CC2N1c1ccccc1)C1CCCCC1 (configuration not stated)	1.3	.	2.2	.	.
CC1(C)CC(=O)C2=C(C1)N(N1CCOCC1)C(N)=C(C#N)C2c1cccs1 (configuration not stated)	-5.4	-2.0%	-0.1	9.5	-17.1
COC(=O)C/C=N/N=C1/NC(=O)/C(=C/C(=O)O)S1	-2.1	-8.0%	-2.1	.	.
c1ccc2c(CN3CCOCC3)csc2c1	1.7	0.5%	0.9	5.0	-20.8
CON=C1CCN(c2ncc(C(F)(F)F)cc2Cl)CC1	-3.4	-1.2%	-0.4	1.7	-19.5
Cc1oc2ccc(OCc3ccc(Br)cc3)cc2c1C(=O)O	16.0	.	-0.6	.	.
COc1ccccc1OCCC(=O)OCC(=O)Nc1ccc(Br)cc1	-7.2	-14.3%	-0.6	-3.3	-29.1
O=C(NNC(=O)C1CC1)Nc1ccc(Cl)cc1	-0.3	.	-0.5	.	.
COc1ccc(N/C=C/C(=C(C#N)C#N)N(C)C)cc1	-2.6	10.7%	.	3.7	.
O=C(NCc1cccc(C(F)(F)F)c1)c1cc(Cl)ccc1Cl	21.5	15.0%	1.3	0.5	-28.0
O=C(Nn1c(O)c(C=C2N=c3ccccc3=N2)sc1=S)c1ccccc1Cl	-8.3	-5.4%	6.9	-8.9	1.5
Cc1ccc2nc(NC(=O)CCNS(=O)(=O)c3cccs3)sc2c1	-4.8	-1.9%	-6.8	5.1	7.4	Arbovirus anti repeat=8.8
CCOC(=O)Cn1cc(C(=O)c2ccco2)c2ccccc21	-7.2	6.7%	1.3	5.3	-8.7
CN(C)c1ccc(N2C(=NC(=O)C3CCCO3)SC3CS(=O)(=O)CC32)cc1 (configuration not stated)	-4.8	.	-3.6	.	.
Cc1ccc(-c2nn(C)c(=O)c3ccccc23)cc1CN1CCOCC1	-7.3	-0.2%	0.4	-2.3	-1.2
CCCSc1nnc(CSc2nc3ccccc3s2)n1-c1ccccc1	-1.3	1.7%	2.9	-13.7	-159.2
Cc1nn(C(C)(C)C)c(OC(=O)c2ccc3c(c2)OCO3)c1Sc1ccccc1	-7.9	-2.9%	7.1	-10.5	-8.0
Cc1cc(-c2nnc(CCC(=O)NCc3ccc(F)c(F)c3)o2)no1	0.1	5.3%	-2.8	-1.5	.
Cc1cc(C(=O)COC(=O)c2cccnc2Cl)c(C)n1CC1CCCO1 (configuration not stated)	0.8	-2.2%	1.8	9.8	.
O=C(CN1C(=O)S/C(=C/c2ccc(N3CCOCC3)cc2)C1=O)N1CCOCC1	9.6	4.9%	-21.4	-0.6	-37.3
COc1cccc(C(=O)N2CCN(C3CCC(c4ccccc4)CC3)CC2)c1 (configuration not stated)	.	-1.2%	2.3	7.4	6.3
CC(=O)Nc1ccc(C2=NN(C)C(=NCc3ccccc3)SC2)cc1	55.9	16.8%	6.8	-6.8	.
Cc1nn(C)cc1S(=O)(=O)N1CCN(c2cccc(Cl)c2)CC1	-1.1	.	-0.1	.	.
CN1CCN(c2oc(-c3cccs3)nc2S(=O)(=O)c2ccccc2)CC1	-5.5	-4.5%	1.1	5.1	-26.9
CCOc1ccc(N2C(=O)c3cccnc3C2=O)cc1	8.6	42.0%	-2.9	-2.1	-26.8
Cc1nn(-c2ccc(F)cc2)c(C)c1CN1CCN(Cc2ccccc2)C(CCO)C1 (configuration not stated)	-1.1	3.7%	1.2	-3.8	.
COc1ccc(-c2cccc(NC(=O)c3cccs3)c2)nn1	-4.4	.	-1.8	.	.
CC1=CCC2C(=O)N(c3nc(C)cc(C)n3)C(=O)C2C1 (configuration not stated)	8.9	3.5%	-0.5	10.5	-32.2
C/C(=N\N=c1/sc2ccccc2n1C)c1ccccn1	61.8	5.5%	2.4	7.8	.
COc1ccc(C2/C=C\CN(Cc3ccncc3)CC(=O)N2Cc2ccc(F)cc2)cc1 (configuration not stated)	-2.6	-2.5%	3.0	.	.
CCOC(=O)C1CCN(CCC(=O)Nc2ccc(Br)cc2)CC1	8.8	.	-2.2	.	.
CCCc1[nH]nc2c1C(c1cccc(OC(=O)c3ccco3)c1)C(C#N)=C(N)O2 (configuration not stated)	2.8	1.5%	58.9*	-1.9	-17.8
Cc1ccc(NC(=O)C(=O)NCC2CCCN2S(=O)(=O)c2cccs2)c(C)c1 (configuration not stated)	-0.2	.	0.9	.	.

Compounds listed so far that have a Cl atom (6):
SMILES	Mtb bLac sens	Mtb H37Rv	RecA intein inh	Arbovirus anti	YopH inh	others
CON=C1CCN(c2ncc(C(F)(F)F)cc2Cl)CC1	-3.4	-1.2%	-0.4	1.7	-19.5
O=C(NNC(=O)C1CC1)Nc1ccc(Cl)cc1	-0.3	.	-0.5	.	.
O=C(NCc1cccc(C(F)(F)F)c1)c1cc(Cl)ccc1Cl	21.5	15.0%	1.3	0.5	-28.0
O=C(Nn1c(O)c(C=C2N=c3ccccc3=N2)sc1=S)c1ccccc1Cl	-8.3	-5.4%	6.9	-8.9	1.5
Cc1cc(C(=O)COC(=O)c2cccnc2Cl)c(C)n1CC1CCCO1 (configuration not stated)	0.8	-2.2%	1.8	9.8	.
Cc1nn(C)cc1S(=O)(=O)N1CCN(c2cccc(Cl)c2)CC1	-1.1	.	-0.1	.	.

Retrieved by compound from the list above (2):
SMILES	Mtb bLac sens	Mtb H37Rv	RecA intein inh	Arbovirus anti	YopH inh	others
CN1CCN(c2oc(-c3cccs3)nc2S(=O)(=O)c2ccccc2)CC1	-5.5	-4.5%	1.1	5.1	-26.9
O=C(NCc1cccc(C(F)(F)F)c1)c1cc(Cl)ccc1Cl	21.5	15.0%	1.3	0.5	-28.0

(next part)
SMILES	Mtb bLac sens	Mtb H37Rv	RecA intein inh	Arbovirus anti	YopH inh	others
C/C(=N\NC(=O)c1c(C)nc2ccccn12)c1ccc(O)cc1O	8.2	.	-5.3	.	.
COc1ccccc1NC(=O)c1ccc2nc(-c3ccccc3)c(-c3ccccc3)nc2c1	3.8	-3.3%	-7.0	-0.9	-36.8
COc1ccc(-c2n[nH]c3c2CN(C(=O)c2ccc(OC)c(OC)c2)CC3)cc1	-4.1	.	1.9	.	.
CN(C)c1ccc(C(CNS(=O)(=O)c2ccc([N+](=O)[O-])cc2)N2CCOCC2)cc1 (configuration not stated)	-14.0	.	-1.1	.	.
COc1ccc(CNc2nc(-c3ccccc3)nn2C(=O)c2ccc([N+](=O)[O-])cc2)cc1	9.7	8.8%	1.1	-2.5	-23.7
CCC(=O)c1ccccc1OCCCCn1cncn1	-2.1	.	0.7	.	.
Cc1ccc(-c2noc(CN(C(=O)Cc3ccccc3)C(C)C)n2)cc1	3.2	7.8%	.	-19.4	4.5
O=S(=O)(NC(=S)NC1CCCCC1)c1ccccc1	-1.3	8.2%	-0.5	-0.1	.
O=C(c1ccccn1)c1conc1C(=O)c1ccc(Br)cc1	3.1	2.5%	4.0	7.9	-4.7
O=C(NCc1ccccc1F)C1CCCN1C(=O)Nc1cccc(F)c1 (configuration not stated)	-14.2	.	0.3	.	.
CC(=O)c1cnc(-c2cccc(Cl)c2)s1	-4.4	0.0%	-0.6	6.9	.
O=C(COc1ccc(S(=O)(=O)NC2CCCC2)cc1)N1CCCCCC1	-9.4	-0.4%	2.7	4.7	30.2
CC(C)CCn1c(=O)c2ccccc2n2c(CN(C)Cc3ccccc3)nnc12	6.1	-3.3%	2.8	-31.3	16.0
O=C(COC(=O)/C=C/c1cccc(Cl)c1)Nc1ccc2[nH]c(=O)[nH]c2c1	-2.5	.	-0.5	.	.
O=C(CSc1n[nH]c(=O)[nH]c1=O)Nc1ccc2c(c1)C(=O)c1ccccc1C2=O	-12.1	-5.8%	6.5	.	.
CC1=N/C(=C\c2ccc([N+](=O)[O-])cc2)C(=O)N1c1cc(Cl)ccc1C	3.7	-4.4%	-1.9	-1.4	-36.4
O=C(Nc1ccccc1)Nc1cc([N+](=O)[O-])ccc1F	-0.8	1.4%	-0.8	1.3	-23.0
Cc1ccc(Oc2nc3ccccn3c(=O)c2/C=C(\C#N)C(=O)Nc2c(C)n(C)n(-c3ccccc3)c2=O)cc1	3.1	2.1%	0.7	17.2	-20.2
COc1ccc(C2=NOC3(CC(=O)N(c4ccc5ccccc5c4)C3=O)C2)c(OC)c1 (configuration not stated)	-3.2	-2.3%	-0.1	9.0	8.5
CCCCNC(=O)COC(=O)c1cc(F)c(F)cc1Cl	97.8	6.16µM*	0.9	5.0	-121.5
O=C(CCC(=O)N1CCN(C2CCCCC2)CC1)Nc1nnc(C(F)(F)F)s1	-18.7	-2.5%	-2.8	1.7	-43.9
CCN(CC(=O)NC(C)C)C(=O)[C@H](C)NC(=O)c1ccc(Br)cc1	-8.4	-2.6%	-0.7	26.4	.
O=C1c2ccccc2NC(c2ccccc2)N1NS(=O)(=O)c1ccccc1 (configuration not stated)	-1.5	7.2%	.	-2.3	.
CCOC(=O)C(NC(=O)c1ccccc1)(N1CCCC1=O)C(F)(F)F (configuration not stated)	-2.4	1.0%	1.3	-2.6	1.1
Cc1noc(NC(=O)c2ccccc2)c1C#N	0.9	3.7%	-0.6	-0.8	-49.3
Cn1c(=O)oc2ccc(C(=O)CSc3nnnn3-c3ccccc3)cc21	2.2	0.1%	0.8	-1.2	-22.3
c1ccc(CCC2CCCCN2Cc2nc(-c3ccc4c(c3)OCO4)no2)nc1 (configuration not stated)	12.4	18.9%	6.4	0.8	.
CCCOc1ccc(NC(=O)CC2C(=O)N(CC)C(=S)N2CCCN2CCN(Cc3ccccc3)CC2)cc1 (configuration not stated)	90.4	3.6%	3.5	-27.8	.
O=C(Cc1cccs1)Nc1cc(SCCO)cc([N+](=O)[O-])c1	-5.9	-3.0%	-7.1	-8.2	-5.1
Cc1cccc(C)c1NC(=O)Cn1nnc(-c2ccc(N3CCOCC3)cc2)n1	11.6	-6.5%	2.4	-7.3	-35.5
O=C(Nc1ccc([N+](=O)[O-])cc1)c1ccc(S(=O)(=O)N2CCCC2)cc1	-1.4	.	-3.9	.	.
Cn1cccc1/C=C1\SC(=S)N(CC(=O)O)C1=O	-7.5	0.0%	.	4.2	-22.1
O=C(NCc1ccccc1)c1onc(CSc2ccc(F)cc2)c1C(=O)NCCCN1CCOCC1	11.3	-0.6%	-1.5	14.3	-21.5
COc1ccc(NC(=O)CC(NC(C)c2ccccc2)C(=O)O)cc1 (configuration not stated)	2.9	.	-3.1	.	.
CCN(c1ccc(NC(=O)c2ccc(Cl)nc2)cc1)C(C)C	7.1	3.6%	-2.5	-12.6	.
O=C(c1cc(S(=O)(=O)N2CCCCC2)c(Cl)cc1N1CCOCC1)N1CCOCC1	-2.7	-15.4%	-4.5	10.4	6.5
CCCNC(=O)c1ccc2c(=O)c(O)c(-c3ccc(Cl)c([N+](=O)[O-])c3)[nH]c2c1	7.2	-1.8%	-11.2	.	.
CCOc1ccc(OCC)c(NC(=O)CN(c2ccc(C)cc2)S(=O)(=O)c2c(C)noc2C)c1	0.7	?	3.4	1.6	-5.4
CCOC(=O)c1c(C)[nH]c(C(=O)OCC(=O)N2CCCC2=O)c1C	-2.0	.	0.4	.	.
O=C1NC(=O)N(c2ccc(Br)cc2)C(=O)/C1=C/c1ccsc1	6.7	-1.1%	-0.1	3.1	.
CCn1ccnc1CN1CCN(CCC(C)C)C(CCO)C1 (configuration not stated)	1.9	-0.6%	4.4	2.4	.
O=c1[nH]c(-c2ccccc2F)nc2c1sc(=S)n2Cc1ccccc1	-0.4	12.7%	-0.7	13.4	-16.6
CC(C)(C)NC(=O)c1ccccc1NC(=O)C1CC(=O)N(C2CCCCC2)C1 (configuration not stated)	0.5	.	1.6	.	.
CCn1c(CNc2cccc(C(F)(F)F)c2)n[nH]c1=S	4.4	-4.4%	-1.9	2.5	.
O=C(CCN1CCN(c2ccccc2F)CC1)c1ccc(Br)cc1	100.3	?	7.3	-4.5	-44.9
CSCCC(NS(=O)(=O)c1ccc(C)cc1)C(=O)NNC(=O)c1csc(N2CCOCC2)n1 (configuration not stated)	-0.4	.	1.7	.	.
CC(C)(C)c1ccc(NC(=O)N2CCN(c3ccc([N+](=O)[O-])cn3)CC2)cc1	-0.6	-5.3%	-0.1	.	.
